Screening data deposited in PubChem BioAssay by ICCB-Longwood Screening Facility, Harvard Medical School.
S aureus helic: inhibitors of S. aureus replicative helicase, primary screen, biochemical, fluorescence unwinding readout; purified S. aureus helicase, fluorescence unwinding assay; about half of the hits fall short of the stated cut; inhibition, %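 (tested at about 80 µM)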; hit rate 0.05% among 120,000; AID 485395, 2010;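 active = both duplicates at 50% or more, or one of them with a favoured structure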;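 also: 0% = mean of negative control wells and 100% = mean of positive control wells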
MgrA-DNA mod: S. aureus MgrA activity modulators, primary screen, biochemical, S. aureus Newman, fluorescence polarization. hit rate 0.13% among 84,000. MgrA-DNA binding. inhibition, %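 (about 10 µg/mL by stock and volumes)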. AID 602314, 2012;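 active = above 50% in either of two replicates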;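 also: 0% = protein plus DNA without compound and 100% = DNA alone without protein; higher means less MgrA bound to DNA so lower polarization; one replicate is shown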
An asterisk follows results filed as active; i = inactive; · = not tested or not shown; & = joins results of further samples.

SMILES	S aureus helic	MgrA-DNA mod
COc1nc(Oc2ccc(/C=N/O)cc2)nc(N(C)C)n1	16.0	1.4
O=C(COc1ccc2c3c(c(=O)oc2c1)CCCC3)Nc1cccc(Br)c1	-4.0	-0.8
CCn1c(=O)c(=O)[nH]c2c(=O)oc3ccc(S(=O)(=O)Nc4ccc(OC)cc4)cc3c21	-25.0	·
Cc1nc2cc(Cl)ccc2c(=O)n1CC1CCCO1 (configuration not stated)	·	1.6
CC(=O)N(c1ccc(C)cc1)C1(C(=O)NC2CCCC2)CCCCC1	7.0	·
CC(=O)NC(=O)c1cc2ccc(OC(C)=O)cc2oc1=Nc1ccc(C(C)=O)cc1	·	0.8
Cc1nnc(N/N=C/CCc2ccccc2)[nH]c1=O	23.0	·
CN(Cc1ccccc1)CN1C(=O)NC(C)(c2ccccc2)C1=O (configuration not stated)	-1.0	·
Cc1ccc(S(=O)(=O)c2ccccc2)cc1S(=O)(=O)N1CCCCC1	2.0	7.8
C/C(=N\O)C12CC3(C)CC(C)(CC(C)(C3)C1)C2	·	-3.0

Next section, starting with the last three of the part before.
SMILES	S aureus helic	MgrA-DNA mod
CN(Cc1ccccc1)CN1C(=O)NC(C)(c2ccccc2)C1=O (configuration not stated)	-1.0	·
Cc1ccc(S(=O)(=O)c2ccccc2)cc1S(=O)(=O)N1CCCCC1	2.0	7.8
C/C(=N\O)C12CC3(C)CC(C)(CC(C)(C3)C1)C2	·	-3.0
COCCn1c(-c2ccccc2)nc(=S)c2c1CC(C)(C)OC2	5.0	-0.7
CN=C(NC#N)NCCSCc1nc[nH]c1C	·	2.1
COc1ccc(/C=C2/SC(=O)N(CC(=O)Nc3ccc(C)c(C)c3)C2=O)cc1OC	·	3.1
Cc1cccn2cc(CNC(=O)C3CCCCC3)nc12	4.0	·
CCN(CC)c1nc(C(=O)Nc2ccc(Br)cc2)cs1	-18.0	·
Cc1cc(C(=O)OCC(=O)N(C)C2CCCCC2)c2ccccc2n1	-21.0	-0.3
CCCC12CN3CC(C)(CN(C1)C(=O)c1ccccc1C3=O)C2=O	2.0	·
COC(=O)c1ccc(-n2c(C)cc3ccccc32)s1	-11.0	·
NS(=O)(=O)c1cc(Cl)sc1Cl	·	3.8
O=C(Nc1cccnc1)c1cc(=O)c2ccccc2o1	-11.0	·
CSc1ncccc1C(=O)NC1(O)C(=O)c2ccccc2C1=O	·	-8.0
N#C/C(=C\c1ccc(Cl)cc1Cl)C(N)=S	·	3.1
CCC1CCCCN1C(=O)Cn1c(C(=O)OC)cc2sccc21 (configuration not stated)	4.0	·
O=c1[nH]nc(-c2nnc3n2-c2ccccc2SC3)c2ccccc12	-8.0	·
O=C(OCC(=O)c1ccc[nH]1)c1ccc(S(=O)(=O)N2CCCCC2)cc1	6.0	·
Cc1nnsc1C(=O)N(Cc1ccccc1)C(C)C	·	-0.8
CC(C)(C)CC(C)(C)NC(=O)C1CCCCC1	8.0	-2.0
O=C(Nc1ccc(-c2nc3ccccc3[nH]2)cc1)C1=COCCO1	15.0	·
COc1ccccc1C(=O)N1CCc2ccccc2C1	9.0	·
Cc1cnc(C(=O)Nc2ccc(S(=O)(=O)NC(C)C)cc2)cn1	-1.0	-1.0
O=C(CN1CCCCC1)N1N=C2c3ccccc3CCC2C1c1ccc(F)cc1 (configuration not stated)	·	-0.9
CCc1ccc(NC(=O)CS(=O)(=O)c2ccc(Cl)cc2)cc1	9.0	-0.2
CCN1CN(Cc2ccccc2)CNC1=S	15.0	-1.6
CCN1CCN(Cc2c(O)ccc3c(=O)c(-c4ccccc4Cl)coc23)CC1	12.0	·
Cc1ccc(C(=O)Oc2ccc(/C=N/NC(N)=O)cc2)cc1	-1.0	0.3
O=C1CC(=O)CC(c2cccc(C(F)(F)F)c2)C1	·	-1.2
CCCOc1ccc(-c2nc(=S)[nH][nH]2)cc1	12.0	3.9
CC(Oc1ncnc2ccccc12)C(=O)Nc1ccccc1F (configuration not stated)	0.0	·
COC(=O)c1c[nH]c(=S)n1C	·	1.9
Cc1nc2c(C)cccn2c1C(Nc1ccc(F)cc1)c1ccccc1 (configuration not stated)	3.0	-0.3
Cc1cc(C)c2c(c1)c(-c1ccccc1)c(-c1ccccc1)n2CC(O)CN1C(=O)c2ccccc2S1(=O)=O (configuration not stated)	·	8.2
O=C(N/N=C/C1=C(Sc2nc3ccccc3o2)CCCC1)c1ccncc1	17.0	·
Cc1cc(-c2nc3ncccc3o2)ccc1NC(=O)c1ccccc1	0.0	-1.6
Cc1ccc(S(=O)(=O)/N=C(\N)Nc2nc3ccccc3o2)cc1	17.0	-2.4
Cc1ccc(SC(C)C(=O)NCc2ccncc2)cc1 (configuration not stated)	0.0	1.4
CC(=O)Nc1nc(-c2ccccc2)cs1	-5.0	·
COc1ccc(-c2csc(NC(=O)Cc3ccccc3)n2)cc1OC	16.0	·
CC(=O)Nc1c(C(=O)N2CCN(C(=O)c3ccco3)CC2)oc2ccccc12	-1.0	·
C=CCN(Cc1nc(-c2ccc(C)cc2)no1)C(=O)C1CCCCC1	1.0	-1.1
Oc1c(/C=N/N2CCCCC2)sc2ccccc12	·	2.6
COc1ccc(N2C(=O)/C(=C/c3ccc(OCC(=O)O)c(OC)c3)C(=O)NC2=S)cc1	·	13.9
COc1cccc(CN(C)C(=O)C2CC(=O)N(CCc3ccccc3)C2)c1 (configuration not stated)	-1.0	·
CCOC(=O)c1cc(-c2ccccc2)n(CC(=O)NC(C)(C)C)c1C	-1.0	·
Cc1cc(-c2csc(-c3cccnc3)n2)c(C)n1C	-5.0	·
O=C(Oc1ccccc1)c1csc(C2COc3ccccc3O2)n1 (configuration not stated)	·	3.1
Cc1nc2scc(-c3ccccc3)c2c(=O)n1/N=C/N(C)C	i	·
CC(=O)Nc1sccc1C#N	10.0	·
O=C(CN1CCCCCCC1)Nc1ccc2c(c1)OCO2	17.0	-3.6
COc1ccc(Cn2ccn(Cc3ccccc3)c(=O)c2=O)cc1	-1.0	1.7
N/N=C(/C(=N/N)c1ccccc1)c1ccccc1	14.0	·

(list continues)
SMILES	S aureus helic	MgrA-DNA mod
COc1cc(C2C(C(=O)OCCOc3ccccc3)=C(C)NC3=C2C(=O)CC(c2ccccc2)C3)ccc1O (configuration not stated)	·	1.6
N#Cc1ccc(C(=O)NCC2CCCCC2)cc1	-4.0	·
CCc1nc2ccccc2c(C(=O)OCC(=O)N(C)Cc2ccccc2)c1C	-18.0	-1.9
CCOC(=O)c1c(C)n(CC)c2ccc(OC(=O)c3ccco3)cc12	-19.0	·
O=c1cc(O)nc(-c2ccc(Cl)cc2)s1	·	4.0
CCOc1ccc(-c2cn3c(n2)sc2cc(C(=O)N(C)Cc4ccccc4)ccc23)cc1	4.0	-1.2
CN(C)CC/C=C1/c2ccccc2CSc2ccccc21	·	3.5
COc1ccccc1NC(=O)C1CC=CCC1C(=O)O (configuration not stated)	·	1.2
COC(CC(=O)O)c1nc2ccccc2s1 (configuration not stated)	-20.0	·
CN(C)c1ccc(C=NCCCN2CCOCC2)cc1	-19.0	-10.4
CN(Cc1ccccc1)C(=O)c1cc(=O)c2ccccc2o1	-17.0	-0.7
COc1cccc(N(CCCN2C(=O)c3cccc4cccc(c34)C2=O)C(=O)c2cccc([N+](=O)[O-])c2)c1	·	1.8
O=C(CSc1nnc(-c2ccccc2F)o1)Nc1ccc(S(=O)(=O)NC2=NCCCCC2)cc1	13.0	·
Cc1c(C(=O)NC2CCOc3ccccc32)oc2ccccc12 (configuration not stated)	15.0	·
CC(=O)NCCOc1ccccc1Cl	9.0	-1.0
CC1C(=O)OC2(C)CC(C)(C)NC(=S)N12 (configuration not stated)	17.0	·
NCCC12CC3CC(CC(C3)C1)C2	0.0	-2.3
CCSc1nnc(-c2cccc(S(=O)(=O)N3CCOCC3)c2)n1-c1ccc(F)cc1	15.0	·
COc1ccc(N2CCN(Cc3nnnn3CCc3ccccc3)CC2)cc1	2.0	-0.6
NC(=S)Nc1cc(Cl)cc(Cl)c1	·	0.7
COCCN(Cc1cc2c(C)cc(C)cc2nc1Cl)C(=O)c1ccco1	7.0	3.8
CN(C)/C=C(\C#N)C(=O)N(C)c1ccc(F)cc1F	29.0	·
O=S(=O)(Cc1ccc(F)cc1)c1cn(Cc2ccccc2Cl)c2ccccc12	9.0	1.2
COC(=O)c1sccc1NC(=S)N1CCCCC1	-40.0	·
O=C(CSc1nc2c(c(=O)n1-c1ccccc1)SCC2)N1CCc2ccccc21	12.0	·
CCCCNC(=S)NC1CCCC1	6.0	-0.7
CCN1CCN(c2nc3ccccc3n3c(C)nnc23)CC1	11.0	·
COc1ccc(CN=CC2=C(O)CC(C)(C)CC2=O)cc1	7.0	0.9
COC(=O)N/N=C\c1c(C)n(Cc2ccccc2)c2ccccc12	9.0	-0.5
CCOC(=O)c1sc(N(Cc2nc(-c3cccc(C)c3)oc2C)C(C)=O)c(C#N)c1C	6.0	3.1

Ordered by length of the SMILES (high to low): some entries from above
SMILES	S aureus helic	MgrA-DNA mod
COc1cc(C2C(C(=O)OCCOc3ccccc3)=C(C)NC3=C2C(=O)CC(c2ccccc2)C3)ccc1O (configuration not stated)	·	1.6
COc1ccc(N2C(=O)/C(=C/c3ccc(OCC(=O)O)c(OC)c3)C(=O)NC2=S)cc1	·	13.9
Cc1ccc(S(=O)(=O)/N=C(\N)Nc2nc3ccccc3o2)cc1	17.0	-2.4
CN(Cc1ccccc1)CN1C(=O)NC(C)(c2ccccc2)C1=O (configuration not stated)	-1.0	·
O=C1CC(=O)CC(c2cccc(C(F)(F)F)c2)C1	·	-1.2

Remaining list, next part:
SMILES	S aureus helic	MgrA-DNA mod
CCn1nnc2cc(C(=O)Nc3ccc(C(=O)OC(C)C)cc3)ccc21	4.0	·
O=C(Nc1ccccc1F)c1ccc2snnc2c1	11.0	·
O=S(=O)(NCC(O)c1ccccc1)c1ccc(-c2ccccn2)s1 (configuration not stated)	·	-0.7
CCOc1ccc2c(c1)C1(C)CC(C)(C)N2C(=O)N1c1ccc(Cl)c(Cl)c1 (configuration not stated)	-2.0	1.1
CC1CCCCC1Nc1n[nH]c(=S)s1 (configuration not stated)	-16.0	·
Nc1nccc(-c2nn(-c3ccc(F)cc3)ccc2=O)n1	13.0	·
Cc1ccc(OCC(O)Cn2c(=N)n(C)c3ccccc32)cc1 (configuration not stated)	-23.0	·
COc1ccccc1-n1cnc2cc(Nc3nnc(C)c4ccccc34)ccc21	·	-2.8
CC(C)Oc1ccccc1Oc1ccc([N+](=O)[O-])cn1	·	-3.0
CCN(CC)CCCn1c(N)c(-c2nc3ccccc3[nH]2)c2nc(C#N)c(C#N)nc21	19.0	4.4
Cc1cnc(NC(=O)C2=C(O)c3ccccc3S(=O)(=O)N2C)s1	·	1.8
CN(C(=O)COC(=O)c1ccc2c(=O)n3c(nc2c1)CCCCC3)C1(C#N)CCCCC1	-9.0	·
O=C(O)CCS(=O)(=O)c1cccc2cccnc12	5.0	·
CS(=O)(=O)Nc1ccc(-c2nc3cccnc3s2)cc1	9.0	-0.7
O=C(Nc1ccc(N2CCOCC2)cc1)C1CC(=O)N(Cc2ccccc2)C1 (configuration not stated)	-8.0	·
CC(=O)OCCCCN1C(=O)c2ccccc2C1=O	·	3.5
O=C(Nc1ccc(F)cc1)C1C2C3CCC(C3)C12 (configuration not stated)	12.0	-2.2
COc1ccc(C(=O)Nc2ccc(O)c(-c3nc4ccccc4s3)c2)c(OC)c1	16.0	·
CN1C(=O)c2cccc3c(S(=O)(=O)Nc4ccc(O)c(C(=O)O)c4)ccc1c23	8.0	-4.2
CC(C)c1ccc(-c2noc(COC(=O)c3ccc(S(=O)(=O)NCCC#N)cc3)n2)cc1	-1.0	·
S=C(Nc1ccc2c(c1)OCO2)Nc1cnccn1	-3.0	-0.9
CCS(=O)(=O)N1CCC(C(=O)O)CC1	2.0	-3.5
COc1ccc(OC)c2c(C)cc(=O)[nH]c12	-9.0	-3.0
CC1CN(S(=O)(=O)c2cccc(-c3cn4cccnc4n3)c2)CC(C)O1 (configuration not stated)	9.0	·
N#Cc1nc(-c2ccccc2OC(F)(F)F)oc1N	·	-0.7
N#CCCN(C(=S)Nc1cccc(C(F)(F)F)c1)C1CCCCC1	·	-0.6
N#CCOC(=O)c1ccc(-c2cc(=O)c3ccccc3o2)cc1	·	-0.4
COc1ccc(C2C(C(=O)OCCOc3ccccc3)=C(C)NC3=C2C(=O)CC(C)(C)C3)cc1OC (configuration not stated)	·	-3.1
O=C(c1ccccc1)c1c[nH]c2cc3c(cc2c1=O)OCO3	6.0	·
Cc1ccc(C(=O)OCC(=O)c2ccc(S(=O)(=O)N3CCCCC3)cc2)o1	-4.0	·
CC(C)(C)c1cc(C(C)(C)C)n(-c2ccc(N=Cc3ccccc3O)cc2)n1	·	0.2
C=CCn1c(-c2ccccc2)n[nH]c1=S	5.0&8.0	3.8&1.9
CCCCN(c1nc2ccccc2[nH]c1=O)S(=O)(=O)c1ccc(C)cc1	-7.0	·
Clc1ccc2c(c1)c(-c1ccccc1)nc1nnnn12	16.0	·
C/C(C=NN1CCN(Cc2ccccc2)CC1)=C\c1ccccc1	0.0	·
CC(=O)NCCc1ccc(S(N)(=O)=O)cc1	-2.0	·
c1ccc(C2=Nn3cc(-c4ccccc4)nc3SC2)cc1	18.0	·
O=c1cc(CN2CCCc3ccccc32)nc2sccn12	-119.0	·
O=C1CCCC2=C1C(c1ccccc1)NC(=S)N2 (configuration not stated)	17.0	-0.4
CCC(C)NC(=O)c1ccc2c(c1)[nH]c(=O)c(=O)n2CC (configuration not stated)	6.0	·
COc1ccc2nc(SCC(=O)Nc3ccc(N4CCCC4)cc3)c(C#N)cc2c1	1.0	1.4
Clc1ncnc2sc3c(c12)CCC3	-1.0	3.5
COc1ccc(-c2cc(C(=O)N(C)Cc3ccccc3)no2)cc1OC	9.0	·
CNC(=S)N/N=C(\C)c1ccccc1	·	-1.7
CCOC(=O)CSc1nc(-c2ccc(OC)cc2)cc(C(F)(F)F)n1	10.0	-6.0

A portion of the library; the hit share may differ from the screen's.
